NS1 function inh = inhibitors of influenza NS1 protein function. S. cerevisiae slowed by influenza A NS1, growth recovery by OD600. Potency, µM (doses to about 46.1 µM), for the others: at the top dose activity, positive = more growth. 270,000 tested, 0.4% active; note: actives are rising curves; nearly all actives have a fitted effect of over 50% in size
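Compounds were scored for reversing the slow growth caused by influenza A NS1 in S. cerevisiae, measured by optical density at 600 nm. Assay medium contained 2% galactose at pH 6.0; NS1-free yeast of the same strain were the positive control.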
Cruzain noTriton = inhibitors of Trypanosoma cruzi cruzain without detergent. 200,000 tested, 2.3% active. purified cruzain, Z-FR-AMC fluorescence, no detergent. Potency, µM, inactives show max response, negative = inhibition, actives largely listed as inhibitors. P25779. AID 1476; active = well fitted curve in the direction sought with a large enough effect; inconclusive = small, poorly fitted or top-dose-only effect, or another doubt; inactive = no such curve, though single readings can be large; an effect the other way counts as inactive or inconclusive;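 note: plate controls were enzyme without inhibitor for no effect and buffer without enzyme for full effect; nearly all actives have a fitted effect of over 40% in size; top concentration of the series not given in the record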
Target sequence (P25779 123-467 limits assumed): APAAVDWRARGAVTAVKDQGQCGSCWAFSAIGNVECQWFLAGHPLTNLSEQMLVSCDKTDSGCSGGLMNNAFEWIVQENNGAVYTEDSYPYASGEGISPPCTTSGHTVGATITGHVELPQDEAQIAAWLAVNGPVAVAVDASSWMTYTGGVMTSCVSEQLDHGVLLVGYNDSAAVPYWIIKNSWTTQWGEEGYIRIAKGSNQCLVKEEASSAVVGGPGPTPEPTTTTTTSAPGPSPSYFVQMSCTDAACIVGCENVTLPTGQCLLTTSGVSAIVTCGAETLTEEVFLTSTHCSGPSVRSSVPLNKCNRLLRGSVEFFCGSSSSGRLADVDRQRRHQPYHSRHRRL
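Detergent-free condition (0.00005% Triton X-100) in acetate buffer pH 5.5 with DTT. 1.5 nM enzyme and compound were pre-mixed 15 min, then 2 uM Z-FR-AMC substrate added; reaction progress from fluorescence change between first and third reads (60 s).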
SARS PLpro yeast = inhibitors of SARS-CoV papain-like protease in yeast; S. cerevisiae expressing SARS-CoV PLpro, growth rescue; control for the full effect not named in the record; Potency, µM (titrated, usually from 32.9 µM), for inactives: at the highest dose activity, positive = growth rescue; 330,000 tested, 0.19% active; note: 0% is about no effect; nearly all actives have a fitted effect of over 55% in size; growth read by luminescence after 48 h
Marburg entry inh = Marburg virus entry inhibition; Marburg virus pseudotyped entry inhibition, cell reporter; control for the full effect not named in the record; about a third of the inactives were read at about 46 µM; Potency, µM (doses to about 37.8 µM), for inactives: at the highest dose activity change, negative = inhibition, usual class: inhibitors; 300,000 tested, 1.8% active; active = well fitted inhibition curve with a large enough effect; inconclusive = small, poorly fitted or top-dose-only effect, or effect the other way; inactive = flat fitted curve, though single readings scatter; tested in HEK293 cells; about a fifth of its hits are not listed in these tables; note: % is set by controls: 0 for no effect and ±100 for the full control effect; luciferase read-out
2A StopGo = lowers the luciferase signal of an FMDV 2A StopGo reporter. human cells with a luciferase reporter of 2A StopGo recoding; control for the full effect not named in the record. Potency, µM (titrated, usually from 57.9 µM), inactives show top-dose signal change, negative = less light. AID 1159524. 410,000 tested, 1.2% active; active = well fitted falling curve with a large enough effect; inconclusive = small, poorly fitted or top-dose-only effect; inactive = no such curve, though single readings can be large or run the other way; tested in HEK293T cells; note: % is set by controls: 0 for no effect and ±100 for the full control effect; nearly all actives have a fitted effect of over 45% in size; luciferase light after 4 h
LASV entry inh = blocks Lassa virus binding to or entry into cells; Lassa virus pseudotype entry inhibition, cell reporter; control for the full effect not named in the record; Potency, µM (doses to about 37.9 µM), for the others: at the top dose activity change, negative = inhibition, most hits filed as inhibitors; 300,000 tested, 1.2% active; AID 540256; active means well fitted inhibition curve with a large enough effect; inconclusive means small, poorly fitted or top-dose-only effect, or effect the other way; inactive means flat fitted curve, though single readings scatter; tested in HEK293 cells; note: % is set by controls: 0 for no effect and ±100 for the full control effect; nearly all actives have a fitted effect of over 50% in size; luciferase read-out
RE007 growth inh = less growth of the S. pombe RE007 Vpr strain; Potency, µM (titrated, usually from 92.2 µM), inactives show top-dose activity change, negative = less growth; S. pombe RE007 Vpr strain, BacTiter-Glo ATP luminescence, 24 h; control for the full effect not named in the record; 360,000 tested, 0.21% active; AID 651644; active = well fitted falling curve with a large enough effect; inconclusive = small, poorly fitted or top-dose-only effect; inactive = no such curve, though single readings can be large or run the other way;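 note: % is set by controls: 0 for no effect and ±100 for the full control effect; nearly all actives have a fitted effect of over 50% in size; the assay follows cell death caused by Vpr and the record does not say whether a fall means rescue or toxicity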
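Fission yeast strain RE007, carrying one chromosomally integrated HIV-1 vpr copy, was seeded at OD 0.01 in PMG+AL medium with 23 nL pinned compound. After 24 h at 30 °C and 99% humidity, viability was read by BacTiter-Glo luminescence.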
Cruzain Triton = cruzain (T. cruzi) inhibition with detergent. purified cruzain, Z-FR-AMC fluorescence, 0.01% Triton. Potency, µM, for the others: max response, negative = inhibition, hits mostly inhibitors. 200,000 tested, 0.43% active. AID 1478; active = well fitted curve in the direction sought with a large enough effect; inconclusive = small, poorly fitted or top-dose-only effect, or another doubt; inactive = no such curve, though single readings can be large; an effect the other way counts as inactive or inconclusive;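 note: plate controls were neutral wells for no effect and buffer without enzyme for full effect; nearly all actives have a fitted effect of over 40% in size; top concentration of the series not given in the record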
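Cruzain (1.5 nM) preincubated 15 min at RT with compound in 100 mM sodium acetate pH 5.5, 5 mM DTT, 0.01% Triton X-100. Reaction started with 2 uM Z-FR-AMC; AMC fluorescence (ex 360/em 450 nm) change over 60 s gave rate.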
* hit, by the source's call; u = inconclusive; x = not tested or not shown; & = joins results of further samples; [ ] = dose if it differs, or a comment. Unless noted, calls come from the whole dose curve; as a rule, active means well fitted rising curve with a large enough effect; inconclusive means small, poorly fitted or top-dose-only effect; inactive means no such curve, though single readings can be large or run the other way. Potency is the fitted concentration of half-maximal effect.

SMILES	2A StopGo	NS1 function inh	Marburg entry inh	SARS PLpro yeast	Cruzain Triton	RE007 growth inh	Cruzain noTriton	LASV entry inh
CC(C)(C)NC(=O)C(c1ccncc1)N(C(=O)Cn1nnc(-c2ccc(F)cc2)n1)c1ccccc1F (stereo not given)	-6%	-3%	-23%[46.1 µM]	-1%	x	0%	x	17%
Cc1ccc(C)c(N(CC(=O)N(C)C)S(C)(=O)=O)c1	13%	-4%	7%	7%	2.7%	14%	-8%	6%
COc1ccc(NC2=Nc3cccc4cccc2c34)cc1	-7%	-13%	u	0%	-4.5%	-13%	-3%	-8%
CC(C)(C)c1ccc(OCCC(=O)Nc2cccc(S(=O)(=O)N3CCCC3)c2)cc1	-9%	x	u	3%	x	-17%	x	u
O=C(CN1C(=O)CCn2nc(-c3ccccc3)cc21)NCc1ccc(Cl)cc1	0%	x	x	x	-6.0%	x	u	21%[46.1 µM]
O=C(CN1C(=O)NC2(CCc3ccccc32)C1=O)c1ccc(F)c(F)c1 (stereo not given)	-15%	x	7%	1%	x	28%	x	-22%
CN1CCN(Cc2c(O)c(Cl)cc3c(-c4ccccc4)cc(=O)oc23)CC1	-6%	1%	-16%&-16%[46.1 µM]	-7%	-0.4%	-5%	-2%	2%
CCn1ccnc1CC1COc2ccccc2O1 (stereo not given)	-25%	-8%	u	x	-4.2%	1%	5%	28%
CCOC(=O)C(=CNc1ccc(-c2ccco2)c(Cl)c1)C(=O)OCC	-22%	11%	x	-1%	x	-12%	x	x
CCOC(=O)C1=c2s/c(=C\c3ccncc3)c(=O)n2C(N)=C(C(=O)OC)C1c1ccncc1 (stereo not given)	u	x	u	3%	x	7%	x	-19%
O=C(COC(=O)CCc1c[nH]c2ccccc12)NC(c1ccccc1)c1ccccc1	-24%	-43%	4%	10%	-8.4%	-7%	2%	13%
O=C(NCC1CCCO1)c1cc(-c2ccc(Cl)cc2Cl)on1 (stereo not given)	21%	-4%	u	-2%	-3.1%	3%	14%	u
CCC(C)NC(=O)Cc1ccc(-c2ccccc2)cc1 (stereo not given)	4%	8%	x	-2%	x	-13%	x	x
Cc1ccc(-c2nn3c(C)nnc3s2)cc1NC(=O)c1ccc(-c2ccc(Cl)cc2Cl)o1	-5%	-38%	15µM*	-1%	-24%	8%	u	u
Cc1c(Cl)cccc1NC(=O)Cn1cc(C(=O)c2cccs2)c2ccccc21	u	x	u	x	-5.6%	x	1%	u
O=C(Nc1ccc2cn[nH]c2c1)c1ccc(S(=O)(=O)N2CCOCC2)cc1	-20%	5%	10%	2%	x	0%	x	26%
Cc1cc(C)c(NC(=O)C(C)OC(=O)c2cc(Br)c(Br)s2)c(C)c1 (stereo not given)	-22%	11%	18%	-21%	-1.4%	10%	25µM*	-10%
O=C(Cn1c(=O)oc2cc(S(=O)(=O)NCc3ccccc3)ccc21)Nc1cccc(F)c1	41%[activator]	x	-3%[46.1 µM]	x	-5.0%	x	-15%	x
Cc1ccc2cc(CN(C(=O)c3ccco3)c3ccccc3)c(=O)[nH]c2c1	1%	6%	0%	-12%	-1.1%	0%	-26%	2%
Cc1ccc(NC(=O)CN2C(=O)CC(c3ccco3)Sc3ccccc32)cc1Cl (stereo not given)	-8%	x	-1%[46.1 µM]	x	-4.3%	x	-5%	x
Cc1[nH]c2ccccc2c1/C=C(\C#N)C(=O)NC(C)c1ccccc1 (stereo not given)	4%	5%	-23%	-42%	-5.6%	-12%	5%	-3%
COc1ccccc1C/C(N)=N/OC(=O)c1cccc([N+](=O)[O-])c1	-22%	2%	u	-35%	-5.5%	-21%	-9%	-1%
CC(=O)OCCN(C)c1cc(SC(C)C)c2nonc2c1[N+](=O)[O-]	-17%	x	-2%	5%	x	1%	x	2%
CCCCN(C(=O)c1cc(S(=O)(=O)N2CCOCC2)ccc1F)c1c(N)n(CCCC)c(=O)[nH]c1=O	-11%	x	u	x	x	-14%	x	1%
O=C(CCCN1C(=O)/C(=C/c2ccccc2Cl)SC1=S)NNC(=O)c1ccccc1Cl	u	8%	6.3µM*	-20%	-7.1%	12%	-20%	u
C[C@@H](C(=O)NCC1CCCO1)N1C(=O)N2CCc3c([nH]c4ccccc34)[C@@]2(C)C1=O (stereo not given in full)	0%	-2%	x	-2%	x	-10%	x	x
S=C(c1ccc2c(c1)OCO2)N1CCOCC1	-12%	-24%	x	-2%	x	38%	x	x
COc1cc(C=O)ccc1OC(=O)Nc1ccccc1	56%[activator]	x	u	x	x	-17%	x	1%
Cn1c(CN2CCOCC2)nnc1SCC(N)=O	17%	-3%	0%	1%	2.4%	-5%	-8%	u
Cc1ccc(NS(=O)(=O)c2c(C(=O)N3CCCCCC3)c(C)n(C)c2C)c(Cl)c1	42%[activator]	u	-6%[46.1 µM]	-5%	x	-2%	x	-19%[46.1 µM]
CCC(C(=O)N1CCc2cc(OC)c(OC)cc2C1)c1ccccc1 (stereo not given)	-26%	-9%	4%	1%	5.0%	37%	1%	-4%
O=C(Nc1ccccc1C(=O)N/N=C/c1ccncc1)c1ccccc1	-60%	x	u	-17%	x	8.9µM*	x	u
COC(=O)c1ccc(N(CC(=O)NC2CCCC2)C(=O)CNC(=O)c2cccs2)cc1	23%	0%	2%[46.1 µM]	1%	x	-11%	x	u
COc1cc(OC)c(-c2nnc3n(CCc4ccccc4)c(=O)c4ccccc4n23)cc1OC	x	-1%	x	-5%	-4.2%	x	u	x
CCOC(=O)c1cc2c(=O)n3ccccc3nc2n(C)c1=NC(=O)c1c(-c2c(F)cccc2Cl)noc1C	-20%&-2%	x	u	x	6.9%	2%	4%	1%
CC1CCN(c2c(NCc3ccc(C(=O)N4CCc5ccccc54)cc3)c(=O)c2=O)CC1	17%	10%	4%	-3%	-0.4%	-12%	u	x
O=C(CCc1ccc(S(=O)(=O)N2CCOCC2)cc1)Nc1ccc(N2CCOCC2)cc1	-11%	4%	9%	x	2.9%	0%	6%	9%
CCN(c1ccccc1)S(=O)(=O)c1ccc(Cl)c(NC(=O)COC(=O)C2CC2C)c1 (stereo not given)	-4%	x	14%[46.1 µM]	1%	x	2%	x	-15%
COC(=O)CCC/C=C1/SCC(NC(=O)c2ccccc2)C1O (stereo not given)	16%	-4%	4%	x	-1.6%	-4%	-1%	0%
O=c1c2ccccc2n(Cc2cccc(F)c2)c(=O)n1C1CCCC1	-25%	-61%	-4%	-8%	0.3%	4%	4%	u
Cc1ccc2nsnc2c1S(=O)(=O)NCc1ccncc1	-15%	-1%[9.22 µM]	-5%	19%	-3.1%	-11%	1%	5%
COc1cccc(C(=O)COC(=O)C2CC3CCCC(C2)C3=O)c1 (stereo not given)	-16%	x	5%	-2%	x	2%	x	1%
O=C(CSc1ncnc2scc(-c3ccccc3)c12)N1CCN(Cc2ccc3c(c2)OCO3)CC1	u	13%	u	-8%	-7.8%	u	-23%	-3%
Cc1cc(C)c(NC(=O)CN(C)S(=O)(=O)c2ccc3c(c2)CCC(=O)N3)c(C)c1	-20%	x	-1%[46.1 µM]	x	0.4%	x	-1%	2%[46.1 µM]
COCCN(C(=O)CCC(=O)Nc1ccccn1)C(C(=O)NC(C)C)c1ccc(C)cc1 (stereo not given)	24%	-5%	-11%[46.1 µM]	-3%	x	12%	x	-4%[46.1 µM]
CCc1ccc(CNC(=O)CCc2nnc(CCc3ccc(OC)cc3)o2)nc1	-2%	0%	x	0%	x	1%	x	x
COc1ccc(S(=O)(=O)NCCc2sc(-c3cccnc3)nc2C)cc1	38%[activator]	x	x	x	-4.8%	x	-10%	-7%[46.1 µM]
CCCCN(C(=S)Nc1ccccc1)C1CCS(=O)(=O)C1 (stereo not given)	-13%	1%	0%	3%	2.8%	4%	-6%	-5%
COc1cccc(-c2nnc(SCC(=O)NC3CCS(=O)(=O)C3)n2C)c1 (stereo not given)	0%	x	7%	2%	x	-13%	x	-1%
CCOc1ccc2nc(NS(C)(=O)=O)sc2c1	52%[activator]	-10%	5%[46.1 µM]	-5%	-0.1%	-15%	-16%	-2%
COn1c(=O)c(=O)n(OC)c2ccccc21	2%	7%	6%	6%	-0.3%	1%	1%	18%
COc1ccccc1/C=C/c1nc(S(=O)(=O)c2ccccc2)c(NCCN(C)C)o1	-4%	22%	x	0%	x	-8%	x	x
CCOC(=O)Nc1cc(=O)c2ccccc2o1	2%	-32%	u	2%	-1.8%	7%	-1%	-30%
CC(=O)OCCN1C(=O)c2ccc(-c3nc4ccccc4c(=O)o3)cc2C1=O	-15%	x	2%[46.1 µM]	x	x	-6%	x	-2%
COC(=O)COc1ccc(S(=O)(=O)Nc2ccccc2SC)cc1	3%	0%	u	3%	-0.9%	0%	-6%	12%
O=C(CSc1nnc(Nc2ccccc2)s1)NCc1cccs1	-10%	8%	5%	-1%	-3.0%	18%	9%	-7%
Cc1ccc(/C=C2\C(=N)N3N=C(CC(=O)N4CCOCC4)SC3=NC2=O)o1	10%	24%	23%[46.1 µM]	4%	x	4%	x	15%[46.1 µM]
N[C@@H](Cc1ccccc1)C(=O)N1CCC(C(=O)N[C@@H](CCC(=O)O)C(=O)O)CC1	0%	8%	x	2%	x	4%	x	x
CN1CCN(C(=O)COc2ccc(N(C)S(=O)(=O)c3ccc(F)cc3)cc2)CC1	-11%	x	12%[46.1 µM]	-1%	x	-18%	x	x
Cc1ccc(NC(=O)CCn2c(=O)[nH]c3ccsc3c2=O)cc1F	22%	10%	2%[46.1 µM]	1%	x	3%	x	10%[46.1 µM]
O=S(=O)(c1cccs1)N1CCN(c2ccnc3cc(Cl)ccc23)CC1	u	-6%	u	-1%	x	-10%	x	u
CC1CC(C)CN(C(=O)C(Cc2ccccc2)n2cccc2)C1 (stereo not given)	-23%	2%	-20%	-5%	x	-14%	x	-3%
